# AF4-AF9 inh: inhibitors of human MLL-AF4/AF9 interaction | P42568 | AlphaScreen, biotin-AF4 peptide binding to FLAG-AF9 | inhibition, % at 10 µM | hit rate 0.47% among 350,000 | AID 651704;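 active means every replicate reaching a set inhibition limit, whatever the replicate mean, cut at about 25% in these data; inconclusive means mean inhibition reaches that limit but some replicates miss it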;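 further: 0% = plate neutral control median and 100% = total signal loss; the record names both 10 and 1 µM as test concentration; the first replicate is given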
# Target sequence (P42568 whole entry, looked up): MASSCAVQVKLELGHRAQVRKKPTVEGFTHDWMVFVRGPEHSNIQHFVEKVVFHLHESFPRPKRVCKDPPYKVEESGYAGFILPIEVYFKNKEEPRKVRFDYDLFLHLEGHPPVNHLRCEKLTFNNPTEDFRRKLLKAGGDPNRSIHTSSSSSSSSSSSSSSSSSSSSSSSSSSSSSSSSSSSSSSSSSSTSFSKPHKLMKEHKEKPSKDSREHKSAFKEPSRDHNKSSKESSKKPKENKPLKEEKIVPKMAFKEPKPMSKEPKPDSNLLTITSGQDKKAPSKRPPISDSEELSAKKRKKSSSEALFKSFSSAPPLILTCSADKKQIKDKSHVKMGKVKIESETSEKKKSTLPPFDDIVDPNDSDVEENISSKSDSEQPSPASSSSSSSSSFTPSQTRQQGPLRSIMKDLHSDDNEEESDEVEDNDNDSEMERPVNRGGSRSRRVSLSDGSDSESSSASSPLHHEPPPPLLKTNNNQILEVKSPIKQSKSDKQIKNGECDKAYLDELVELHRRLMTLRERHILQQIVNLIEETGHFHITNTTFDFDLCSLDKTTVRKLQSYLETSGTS
# HNF4A DNA FP: change in binding of human HNF4 alpha to DNA; P41235; HNF4a-FITC DNA binding, fluorescence polarization, 1 h; activity change, % at 10 µM; hit rate 0.3% among 360,000; in the data active means activity change above about 30%, passing the limit was not always enough;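 further: controls were the assay level and a saturating level of protein; the project sought stronger binding though the title names inhibitors; some compounds called inactive have numbers as strong as hits; positive values seem to mean higher polarization but the record does not say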
# Target sequence (P41235 whole entry, looked up): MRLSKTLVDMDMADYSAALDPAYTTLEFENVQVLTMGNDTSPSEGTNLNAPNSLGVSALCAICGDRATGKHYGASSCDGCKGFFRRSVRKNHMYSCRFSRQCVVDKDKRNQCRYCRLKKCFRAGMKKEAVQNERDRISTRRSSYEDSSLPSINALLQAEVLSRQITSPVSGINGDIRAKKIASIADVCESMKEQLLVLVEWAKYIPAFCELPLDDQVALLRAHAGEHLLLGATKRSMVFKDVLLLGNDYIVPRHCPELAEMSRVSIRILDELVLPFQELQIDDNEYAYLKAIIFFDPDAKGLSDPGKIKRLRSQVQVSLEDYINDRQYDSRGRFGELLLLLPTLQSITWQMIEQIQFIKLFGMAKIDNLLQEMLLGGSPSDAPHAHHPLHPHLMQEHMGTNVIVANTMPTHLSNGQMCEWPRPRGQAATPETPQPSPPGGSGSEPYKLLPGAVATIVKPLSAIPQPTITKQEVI
# UCH37 DUB inh: blocks the human deubiquitinase UCH37 | Q9Y5K5 | purified proteasome/UCH37, Ub-AMC cleavage fluorescence | inhibition, % (no concentration beside the values) | hit rate 0.33% among 330,000;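 active means mean of two replicates above 20%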;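 further: 0% = compound-free wells with enzyme and 100% = wells lacking proteasome; stock transfer was 100 nL into about 20 µL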
#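 Material: human UCH37 enzyme supplied as purified proteasome complex. Measure: % inhibition of Ub-AMC cleavage fluorescence. Medium: pH 7.4 Tris-HCl (50 mM) with ovalbumin, ATP-MgCl2, DTT. Times: 30 min preincubation with enzyme, 25 min cleavage at room temperature. Detection: AMC fluorescence intensity at 355/460 nm.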
# RanGTP-Imp inh: disruptors of Ran-importin-beta complex formation – biochemical, FRET, CFP-Ran, YFP-importin-beta, homogeneous, primary screen; cell-free CFP-Ran/YFP-importin-beta FRET ratio; inhibition, % (no concentration beside the values); hit rate 1.1% among 300,000; AID 2216;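 active means most replicates above 15%; inconclusive means exactly half above 15%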;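 further: 0% = DMSO wells and 100% = Ran loaded with GDP instead of GTP; wells of about 40 µL received 100 nL stock; the first replicate is given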
# Vif TR-FRET: inhibitors of Vif binding to APOBEC3G peptide, primary screen, biochemical, TR-FRET, GST-Vif 1-94, biotin-A3G peptide, dose response retest (AID 1117319); TR-FRET GST-Vif / biotin-A3G peptide binding; higher % means a stronger effect; test concentration not given here; strong numbers were not always called active; one-dose inhibition, %; IC50 in µM for titrated hits; hit rate 0.57% among 260,000;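 active means above the screen mean plus three standard deviations and confirmed in dose response; inconclusive means results disagree or hit not tested in dose response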;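 further: Vif residues 1-94 fused to GST binding biotinylated APOBEC3G peptide 110-148; 0% = full assay without inhibitor and 100% = GST in place of GST-Vif; retest series ran down from 100 µM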
# FGF22 binding: shifts melting point of recombinant human FGF22; recombinant FGF22 thermal shift, SYPRO orange fluorescence; percent of sucrose octasulfate shift, DMSO zero; hit rate 1.5% among 340,000; Q9HCT0; calls only at 9.99 µM;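 active means melting point raised past a set limit in the mean and every replicate; inconclusive means no clear call; three in four hits are not shown here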
# Ecoli growth: E. coli growth inhibition; Escherichia coli growth, OD600, 23 h; stronger effect = lower value; OD600 absorbance (concentration not given with the values); hit rate 0.21% among 330,000; AID 1053175;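 active means OD600 absorbance below the run mean of sample wells minus 3.6 SD, in any replicate, cut at about 0.56 in these data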;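 further: stock transfer was 300 nL into about 60 µL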
# Active calls of the source: *; i = inactive; ? = inconclusive; . = not tested or not shown; & = joins results of further samples. Only part of the results is shown. The share of hits here may be higher or lower than overall.
No.	smiles	AF4-AF9 inh	HNF4A DNA FP	UCH37 DUB inh	RanGTP-Imp inh	Vif TR-FRET	FGF22 binding	Ecoli growth
1	CCCCN=C1CC(C)(C)CC(=O)/C1=C(/O)CCC	-4.2	1.9	.	1.9	-6%	i	.
2	CCn1c(C)cc(C(=O)COC(=O)c2cccnc2SC)c1C	-1.6	4.7	4.7	.	-3%	i	0.65
3	COC(=O)c1ccc(Cn2cnc3c(cnn3-c3ccc(Cl)cc3)c2=O)o1	-1.5	-0.6	1.1	.	16%	i	0.74
4	CCc1ccc(C(O)c2ncc(-c3ccccc3C(F)(F)F)[nH]2)cc1 (stereo unspecified)	4.1	-0.1	.	.	.	i	.
5	CC1(c2ccccc2)NC(=O)N(CC(=O)Nc2nc(-c3ccccn3)cs2)C1=O (stereo unspecified)	1.3	5.5	0.0	5.9	-2%	i	0.67
6	O=C(COc1cc(O)c2c(=O)cc(-c3ccccc3)oc2c1)c1cccc([N+](=O)[O-])c1	6.3	2.5	3.5	0.6	.	i	0.69
7	COc1ccc(C2=NOC(Cn3nc(C(=O)NCc4ccc(OC(F)(F)F)cc4)cc3-c3ccccc3)C2)cc1 (stereo unspecified)	-0.8	-0.1	-0.9	-5.1	.	i	0.68
8	O=C(CN1C(=O)c2ccccc2C1=O)NCC1CCCO1 (stereo unspecified)	.	-0.8	-0.4	1.1	29%	.	0.69
9	O=C(CSc1nnc(COc2ccc(Cl)cc2)o1)NC1CC2CCC1C2 (stereo unspecified)	-0.8	0.6	3.1	-1.6	.	i	0.68
10	Clc1ccccc1OCCn1cnc2ccccc21	.	1.1	2.0	-1.4	27%	.	0.6
11	COc1ccc(Nc2nc3ccccc3n2C)cc1	-7.6	1.2	0.7	-1.7	.	i	0.64
12	NC(=O)CSc1nnc(-c2ccccc2Br)n1-c1cccc(C(F)(F)F)c1	.	0.0	-1.5	?	28%	.	0.68
13	CNC(=O)c1c(NC(=O)c2ccco2)sc2c1CCC2	-3.2	5.1	-2.6	4.1	-5%	i	0.68
14	Cn1cc(CCC(=O)N2CCCC(N3CCN(c4ccccc4F)CC3)C2)cn1 (stereo unspecified)	-0.4	2.6	-0.7	2.9	.	i	0.68
15	Cc1ccc(NC(=S)/C(=C(\[O-])c2ccc(F)cc2)[n+]2ccccc2)cc1	7.0	4.0	8.8	-0.1	?	i	0.72
16	CC(C)C[C@H](N)C(=O)N1CCC(C(=O)N[C@H](C(=O)NCc2ccc(F)cc2)C(C)C)CC1	-1.8	2.4	1.8	4.1	.	i	0.64
17	CS(=O)(=O)N(CC(=O)N1CCCCC1)Cc1ccccc1	-10	-0.7	.	3.5	-15%	i	.
18	COc1ccc(C(=O)NC(=S)Nc2cccc3cc(O)ccc23)cc1OC	-9.4	0.3	4.7	-4.5	.	i	0.69
19	CCOc1cc2[nH]c(=O)n(Cc3ccc(C(=O)NCCCN4CCC(C)CC4)cc3)c(=O)c2cc1OCC	4.3	1.9	-3.4	1.5	6%	i	0.72
20	CCC(C)(C)C1CCc2[nH]nc(C(=O)NCc3ccccn3)c2C1 (stereo unspecified)	-3.9	-4.0	0.4	.	.	i	0.69
21	COCc1cc(/C=N\NC(=O)Cc2ccc(Cl)cc2)ccc1OC	.	4.1	.	0.4	8%	.	.
22	COc1ccc(C(CC(=O)O)N2Cc3ccccc3C2=O)cc1OC (stereo unspecified)	-1.0	-2.8	2.7	-4.9	5%	i	0.68
23	COc1cccc(NC(=O)c2ccco2)c1	.	-1.8	2.3	-6.2	7%	.	0.69
24	CC(SCCc1ccccn1)C(=O)O (stereo unspecified)	.	-1.3	1.8	3.7	-5%	.	0.73
25	COc1ccc([C@@H]2CC=C(C(=O)O)[C@H](c3ccc(Cl)cc3)N2S(=O)(=O)c2ccc(C)cc2)cc1OC	3.1	-5.2	6.4	.	.	i	.
26	O=C(COC(=O)CCc1ccccc1)Nc1ccccc1OC(F)F	9.0	0.0	1.1	1.4	-8%	i	0.7
27	CC(C)[C@H](NC(=O)c1ccco1)C(=O)OCC(=O)N1CCc2ccccc21	.	3.6	1.2	3.8	-3%	.	0.67
28	CC(=O)Nc1ccc(S(=O)(=O)NCCC(=O)NCCc2ccc(F)cc2)cc1	.	-1.0	2.1	-1.8	20%	.	0.78
29	COc1ccccc1C(=O)NNC(=O)c1cccc(Cl)c1	-1.1	-0.4	4.8	4.3	.	i	0.71
30	COc1ccc2[nH]c3c(c2c1)CCN1C(=O)C(CC(=O)NCc2cccc(C(F)(F)F)c2)C[C@H](C(=O)N2CCCCC2)[C@@]31C (stereo partly specified)	12	-2.0	1.7	.	-6%	i	0.72
31	CN(CCc1ccccc1)C(=O)c1cccc(NC(=O)Cc2cccc(NC(=O)C3CCCN(C(=O)C4CCCCC4)C3)c2)c1 (stereo unspecified)	-12	-0.2	0.8	.	.	i	0.69
32	CC(C)CN(C(=O)COC(=O)CSc1ccccc1F)c1c(N)n(Cc2ccccc2)c(=O)[nH]c1=O	-0.5	-1.7	-0.4	-1.6	4%	i	0.67
33	COc1ccc(C(=S)N2CCOCC2)cc1OC(=O)c1ccc([N+](=O)[O-])cc1[N+](=O)[O-]	11	2.7	5.0	-3.3	.	i	0.7
34	CCCN(CCC)c1nc2c(C)cccn2c(=O)c1/C=C1/SC(=S)N(Cc2ccco2)C1=O	.	8.0	.	-23	0%	.	.
35	CC(=O)c1cccc(NC(=O)N2CCCC2C(=O)Nc2c(C)cccc2C)c1 (stereo unspecified)	.	1.1	0.3	5.2	-1%	.	0.74
36	COc1ccc(CNC(=O)Cc2ccc(NC(=O)C3=C(C)OCCS3)cc2)cc1	-2.1	-3.5	-0.1	-1.4	-3%	i	0.72
37	CCOC(=O)C1CCN(C(=O)c2cc(CN3C(=O)c4ccccc4C3=O)ccc2OCC)CC1	?	2.3	2.8	-3.2	1%	i	0.7
38	O=C(CN1C(=O)COc2ccccc21)Nc1ccc(N2CCOCC2)cc1	-7.1	3.0	1.0	1.9	.	i	0.7
39	O=C(CCc1nc2ccccc2c(=O)[nH]1)OCCOc1ccc(Cl)cc1	-0.9	0.6	1.1	5.7	1%	.	0.69
40	O=C(COC(=O)Cc1ccc(F)cc1)NC1CCS(=O)(=O)C1 (stereo unspecified)	3.6	-4.6	0.3	.	2%	i	0.71
41	COc1ccc(CCNC(=O)c2ccc(CN3CCC(Cc4ccccc4)CC3)cc2)cc1	.	0.0	1.0	4.7	-8%	.	0.67
42	CC(=O)c1cccc(NC(=O)C2=CC(c3cccs3)=NS(=O)(=O)N2C)c1	3.4	0.6	5.4	-0.7	.	i	0.63
43	CSc1ccccc1OCc1cc(C(=O)NC2CCc3ccccc32)no1 (stereo unspecified)	-1.6	3.5	2.3	3.0	.	i	0.73
44	Cc1ccc(S(=O)(=O)Cn2nnnc2CN2CCCC3(CCCCC3)C2)cc1	.	0.0	4.2	3.1	-1%	.	0.73
45	Nc1nc2c(c(=O)[nH]1)C(c1ccccc1)C1=C(N2)c2ccccc2C1=O (stereo unspecified)	7.9	-3.0	4.0	?	16%	i	0.7
46	Cc1c(N)cc(S(=O)(=O)O)cc1NC(=O)c1cccc([N+](=O)[O-])c1	0.3	-3.9	2.4	.	20%	i	0.66
47	COc1ccc(CN2CCN(S(=O)(=O)c3ccccc3)CC2)c(OC)c1OC	-1.1	-18	0.9	6.5	.	i	0.67
48	O=S(=O)(Nc1ccc(NS(=O)(=O)c2ccccc2)cc1)c1ccccc1	-2.9	-0.5	.	.	-7%	i	.
49	C/C(=N\NC(=O)c1ccc(Br)o1)c1cc2c(cc1NC(=O)CCC(=O)O)OCO2	0.5	-5.5	.	.	.	i	.
50	Cc1cccc(NC(=O)N2CCN(Cc3ccc(Cl)cc3)CC2)c1	0.8	-1.5	-0.2	5.8	-6%	i	0.64
51	O=C(CN1C(=O)c2ccccc2C1=O)Nc1ccccc1C(=O)NC1CCCCCC1	.	-1.8	4.7	2.0	22%	.	0.69
52	Cc1cc(C)c(NC(=O)CN(C)C(=O)CNC(=O)c2cccs2)c(C)c1	-2.0	3.5	3.7	.	-7%	i	0.68
53	COc1ccc(-c2nnc(SCC(=O)c3ccco3)n2-c2ccccc2)cc1	.	0.3	-0.3	7.4	7%	.	0.77
54	CC1Cc2ccccc2N1CC(=O)NC(c1ccccc1)c1ccccc1 (stereo unspecified)	2.4	1.5	3.0	7.2	.	i	0.71
55	CCc1cccc(C)c1NC(=S)N(CCN(C)C)Cc1cccs1	0.1	1.3	-0.1	54*	.	i	0.63
56	COc1ccc(S(=O)(=O)N2CCOCC2)cc1NC(=O)c1ccc2c(c1)OCCO2	2.2	1.3	2.9	3.0	2%	i	0.65
57	COc1ccc(N(CC(=O)NN=C2CCN(C)CC2)S(=O)(=O)c2ccc(NC(C)=O)cc2)cc1	2.4	-3.4	2.6	-4.6	.	i	0.69
58	Cc1cc(C)c2cc(CN(Cc3nnnn3C3CCCCC3)CC3CCCO3)c(=O)[nH]c2c1 (stereo unspecified)	-2.7	3.6	4.3	-1.8	23%	i	0.69
59	CCOC(=O)C1CCCN(S(=O)(=O)c2cc3c4c(c2)CCC(=O)N4CCC3)C1 (stereo unspecified)	-0.9	-1.7	3.9	-4.0	5%	i	0.7
60	CC(C)NC(=O)N(C)C[C@H]1OCCCC[C@H](C)Oc2ccc(NS(=O)(=O)c3ccccc3)cc2C(=O)N([C@H](C)CO)C[C@H]1C	-3.1&1.2	-1.2	.	.	-4%	i	.

# Some values from above.
# no. 53 – UCH37 DUB inh: -0.3
# no. 46 – Vif TR-FRET: 20%
# no. 60 – HNF4A DNA FP: -1.2
# no. 42 – AF4-AF9 inh: 3.4
# no. 48 – HNF4A DNA FP: -0.5
# no. 41 – HNF4A DNA FP: 0.0
# no. 52 – AF4-AF9 inh: -2.0

# A different layout for some results above.
# The line under a structure holds: AF4-AF9 inh, HNF4A DNA FP, UCH37 DUB inh, RanGTP-Imp inh, Vif TR-FRET, FGF22 binding, Ecoli growth
52	Cc1cc(C)c(NC(=O)CN(C)C(=O)CNC(=O)c2cccs2)c(C)c1
 : -2.0, 3.5, 3.7, ., -7%, i, 0.68
53	COc1ccc(-c2nnc(SCC(=O)c3ccco3)n2-c2ccccc2)cc1
 : ., 0.3, -0.3, 7.4, 7%, ., 0.77

# Back to the main list with the 3 entries that preceded the break.
No.	smiles	AF4-AF9 inh	HNF4A DNA FP	UCH37 DUB inh	RanGTP-Imp inh	Vif TR-FRET	FGF22 binding	Ecoli growth
58	Cc1cc(C)c2cc(CN(Cc3nnnn3C3CCCCC3)CC3CCCO3)c(=O)[nH]c2c1 (stereo unspecified)	-2.7	3.6	4.3	-1.8	23%	i	0.69
59	CCOC(=O)C1CCCN(S(=O)(=O)c2cc3c4c(c2)CCC(=O)N4CCC3)C1 (stereo unspecified)	-0.9	-1.7	3.9	-4.0	5%	i	0.7
60	CC(C)NC(=O)N(C)C[C@H]1OCCCC[C@H](C)Oc2ccc(NS(=O)(=O)c3ccccc3)cc2C(=O)N([C@H](C)CO)C[C@H]1C	-3.1&1.2	-1.2	.	.	-4%	i	.
61	COC(=O)c1sc(S(=O)(=O)N2CCN(CCO)CC2)c(C(=O)OC)c1C	-1.4	6.4	1.2	-1.1	-3%	i	0.67
62	CCCC(=O)Nc1ccc(Cl)c(NC(=O)CC)c1	.	1.0	3.1	-0.3	-3%	.	0.7
63	Cc1ccc(S(=O)(=O)N2CCOCC(=O)NCCOCCNC(=O)COCC2)cc1	.	-1.2	-2.0	-0.4	19%	.	0.75
64	CC(NC(=O)CNC(=O)c1ccco1)c1ccccc1 (stereo unspecified)	-1.8	1.0	0.3	-1.6	.	i	0.67
